High-throughput results (PubChem)
S aureus helic – blocks Staphylococcus aureus DNA helicase; purified S. aureus helicase, fluorescence unwinding assay; about half of the hits fall short of the stated cut; inhibition, %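 (tested at about 80 µM)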; 120,000 tested, 0.05% active; AID 485395;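 active means both duplicates at 50% or more, or one of them with a favoured structure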;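 further: 0% = mean of negative control wells and 100% = mean of positive control wells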
MgrA-DNA mod – modulators of Staphylococcus aureus MgrA DNA binding; inhibition, %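 (about 10 µg/mL by stock and volumes)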; 84,000 tested, 0.13% active; fluorescence polarization;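 active means above 50% in either of two replicates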;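 further: 0% = protein plus DNA without compound and 100% = DNA alone without protein; higher means less MgrA bound to DNA so lower polarization; one replicate is shown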
An asterisk follows results filed as active; / = not tested or not shown; & = joins results of further samples. These rows are one share of the data; the hit share may differ from the screen's.

Sequence of screens: S aureus helic, MgrA-DNA mod
> Cc1cc(Nc2cccc(Cl)c2)nc2ccc(NC(=O)c3ccc(=O)[nH]c3)cc12
  1.0, -0.3
> COc1cccc(N/C=C/C(=O)c2cccs2)c1
  6.0, 4.0
> O=S(=O)(NCCc1nc2ccccc2[nH]1)c1ccccc1
  -19.0, 1.6
> Cc1ccc(S(=O)(=O)N(C#N)c2nc(N(C)C)nc(N(C)C)n2)cc1
  7.0, /
> COc1ccc(C(=O)N2CCC(C(N)=O)CC2)cc1
  1.0, /
> Cn1c(-c2ccccc2)cnc1NCc1ccc(Br)cc1
  -18.0, /
> Cc1cc(OS(=O)(=O)c2ccc(F)c(Cl)c2)n(-c2ccccc2)n1
  /, -0.7
> CCNc1nc(OC(C(F)(F)F)C(F)(F)F)nc(N(c2ccccc2)c2ccccc2)n1
  8.0, -0.9
> C=CCn1c2nc3ccccc3nc2c2c(=O)n(Cc3ccc4c(c3)OCO4)cnc21
  5.0, /
> Cc1cc(C)c2c(N)c(-c3n[nH]c(=S)n3C)sc2n1
  -133.0, /
> COC(=O)c1ccccc1NC(=O)C1CCN(c2ncnc3c2sc2cccc(F)c23)CC1
  0.0, /
> O=C(O)COCC(=O)Nc1ccc(-n2cnnn2)cc1
  -21.0, /
> O=C(CN1C(=O)c2ccccc2S1(=O)=O)NC1CCCCC1
  -15.0, 0.4
> CCCNS(=O)(=O)c1cc(OC)ccc1OC
  18.0, /
> Cc1cc(C)c(-c2cc(N)n[nH]2)cc1C
  -17.0, -0.7

The listing continues.
Sequence of screens: S aureus helic, MgrA-DNA mod
> COc1ccccc1/C=N/OCC(=O)N(C)c1ccccc1
  3.0, /
> CC(=O)NC(c1ccccc1)c1ccccc1
  -3.0, -1.8
> CCc1ccc(NC(=O)C(C)OC(=O)c2ccc3ccccc3n2)cc1 (configuration not stated)
  -19.0, 0.4
> CCN(CC)c1c(S(=O)(=O)c2ccccc2)cnc2cc(OC)c(OC)cc12
  12.0, /
> O=C(/C=C/c1ccc(F)cc1)NC(Cc1ccccc1)C(=O)O (configuration not stated)
  -6.0, 9.6
> NC(=S)c1nc(-c2ccccc2)oc1N
  /, -0.3
> CCCCCCCC/C=C\CCCCCCCC(=O)OC[C@H](CO)OC(C)=O
  /, -1.2
> COC(=O)c1cc(CSc2nc3ccccc3[nH]2)ccc1O
  -4.0, /
> Cn1c(C(C#N)C(=O)c2cc(-c3cccnc3)nc3ccccc23)nc2ccccc21 (configuration not stated)
  0.0, /
> O=C(Nc1c[nH]c2ccccc2c1=O)NC1CCCC1
  -15.0, /
> N=C1c2ccccc2CN1NC(=O)CC12CC3CC(CC(C3)C1)C2
  -16.0, /
> O=c1c2ccccc2nnn1CSc1nc2cc(Cl)ccc2c(=O)n1C1CCCC1
  7.0, /
> CC(=O)OC1CCC2OC1CCC2OC(C)=O (configuration not stated)
  1.0, 22.4
> Fc1ccccc1NC(=S)N/N=C/c1cn(-c2ccccc2)nc1-c1cc2ccccc2o1
  3.0, /
> COc1ccc2nc(N=NC3=C(O)CC(C)(C)CC3=O)sc2c1
  29.0, /

Other entries.
Sequence of screens: S aureus helic, MgrA-DNA mod
> CCOc1ccc(NC(=S)Nc2cc(C)[nH]n2)cc1
  15.0, -0.7
> C=COC(=O)c1sc2nc(C)cc(C)c2c1N
  5.0, -1.4
> O=C(OCC(=O)N1c2ccccc2Sc2ccccc21)c1cnccn1
  8.0, /
> CC(C)(C)OC(=O)CSc1nnc(-c2cc(Cl)ccc2Cl)n1N
  -2.0, /
> Cn1c(=S)sc2c(=O)[nH]c(-c3ccc(Cl)cc3)nc21
  14.0, /
> Cc1oc(-c2ccccc2)nc1C(=O)OCC(=O)c1ccc(Cl)cc1
  -6.0, /
> Cn1cccc1C(=O)O
  17.0, /
> CC(C)NC(=O)C1CCCN1C(=O)Nc1ccccc1 (configuration not stated)
  -3.0, 0.8
> CC(=O)n1cc(/C=C2\N=C(c3cccc(C)c3)OC2=O)c2cc(Br)ccc21
  /, -1.7
> S=C1C=C(N2CCCCC2)CC(c2cccs2)S1 (configuration not stated)
  /, 0.5
> Nc1ccccc1C(=O)NC12CC3CC(CC(C3)C1)C2
  7.0, -2.0
> CC1CCN(C(=O)Nc2csc3ccccc23)CC1
  /, 0.5
> O=C1CCCc2[nH]c(-c3ccccc3)nc21
  3.0, -3.4
> Cc1ccc2oc(-c3ccc(C(C)(C)C)cc3)nc2c1
  -20.0, /
> Cc1cccc(NC(=O)c2cc3ccccc3o2)c1
  -2.0, /

Next part.
Sequence of screens: S aureus helic, MgrA-DNA mod
> CCN(CC)c1ccc(/C=C2/SC(=O)NC2=O)cc1
  -11.0, 2.2
> Cc1ccnc(NS(=O)(=O)c2ccc(N3C(=O)Nc4ccccc4N3O)cc2)c1
  10.0, 0.2
> CN(C)C(=O)c1cn(-c2ccccc2)nc1-c1cc2ccccc2oc1=O
  -36.0, /
> CCN(CC)C(=O)CN1C(=O)C2CCC(=O)CC2C1=O (configuration not stated)
  /, -0.8
> COc1ccc(S(=O)(=O)NNc2ncnc3sc4c(c23)CCCC4)cc1
  0.0, 14.9
> CN(C)C(=S)NC1CCCCC1
  -6.0, /
> CN(C)c1nc(N2CCOCC2)nc(N(c2ccccc2)c2ccccc2)n1
  /, -0.6
> CC(=O)Oc1ccc2c(=O)oc(-c3ccccc3)nc2c1
  3.0, /
> O=C(O)c1ccc(-c2nn[nH]n2)cc1
  -6.0, -2.5
> O=C1CN(O)C=C2N=c3ccccc3=C2N1c1ccccc1
  -42.0, /
> COc1cccc(NC(=O)COc2ccccc2F)c1
  -9.0, -0.8
> CCOC(=O)c1oc2ccc(Br)cc2c1COC(=O)Cn1c(=O)oc2ccccc21
  3.0, /
> NCCCN1CCCCC1
  2.0, 6.9
> CSc1nc(C)c(CCC(=O)OCC(N)=O)c(C)n1
  -10.0, /
> CC(C)(C)C1CCc2c(sc3c2C(=O)NC(c2ccco2)N3)C1 (configuration not stated)
  4.0, -1.8

Exported as tab-separated lines: 3 of the compounds above.
molecule	S aureus helic	MgrA-DNA mod
CCN(CC)C(=O)CN1C(=O)C2CCC(=O)CC2C1=O (configuration not stated)	/	-0.8
COc1ccc(S(=O)(=O)NNc2ncnc3sc4c(c23)CCCC4)cc1	0.0	14.9
CN(C)C(=S)NC1CCCCC1	-6.0	/

Next section:
Sequence of screens: S aureus helic, MgrA-DNA mod
> Nc1nc(-c2cccnc2)nc2c1c(=O)oc1ccccc12
  3.0, 0.1
> CC(=O)Oc1c(C)c(C)c2oc(=O)ccc2c1C
  /, 0.5
> Cc1cccc(NC2=NS(=O)(=O)c3ccccc3N2)c1
  2.0, 0.2
> CC(c1cccs1)n1nccc1NC(=O)CCC(=O)O (configuration not stated)
  -7.0, /
> O=C1CC(n2nc(C(O)c3ccccc3)n(-c3ccccc3)c2=S)C2COC1O2 (configuration not stated)
  6.0, 0.3
> N#Cc1cc2ccc(Br)cc2cc1C#N
  11.0, 1.8
> CCOC(=O)/C=C1\SCC(=O)N1Cc1ccc(C(=O)OC)cc1
  -13.0, /
> COc1cc(/C=C2\SC(=S)N(NC(=O)c3ccc(Br)cc3)C2=O)cc(OC)c1OC
  /, -0.7
> O=C(CSCc1c(Cl)cccc1Cl)N1CCOCC1
  1.0, 0.8
> Cc1cc(C(F)(F)F)nn1CC(=O)O
  -1.0, -5.1
> NS(=O)(=O)c1ccc(CNS(=O)(=O)c2ccccc2)cc1
  /, 0.2
> CSC1=N/C(=C\c2ccc(Cl)cc2)C(=O)N1Cc1ccco1
  /, 1.3
> NC(=O)CCN1CCn2c1nc1ccccc12
  2.0, -1.1
> Oc1ccccc1C=Nc1ccccc1O
  6.0, -0.7
> CC(c1ccccc1)n1c(SC(F)F)nc2ccccc2c1=O (configuration not stated)
  -1.0, /

(more compounds)
Sequence of screens: S aureus helic, MgrA-DNA mod
> CCN1CCCC1CNC(=O)c1nnc(Cc2cccc(F)c2)o1 (configuration not stated)
  8.0, -0.2
> CCN(CC)Cc1ccc(C(=O)O)cc1
  10.0, -0.1
> NC(CSCc1c(F)cccc1Cl)C(=O)O (configuration not stated)
  /, -0.2
> O=C(CCCc1c[nH]c2ccccc12)NCc1ccccc1C(F)(F)F
  7.0, -1.8
> C=C1SC(Nc2ccccc2Cl)=NC12CCCCC2
  /, 2.5
> S=C1CCc2ccccc2N1Cc1ccccc1
  /, -0.3
> CCCNC(=O)CN1CCN(c2cc3ccccc3c(Cl)n2)CC1
  -15.0, /
> CC(C)CCn1c(COc2ccccc2)nn(CCC#N)c1=S
  -16.0, /
> N#Cc1ccccc1OCC(=O)N1CCC(Cc2ccccc2)CC1
  -3.0, -1.2
> Cc1cc(OCC(=O)N2C(C)CCCC2C)ccc1Cl (configuration not stated)
  -5.0, /
> C(=C\CN1CCCCC1)/CN1CCCCC1
  -12.0, /
> c1ccc2oc(-c3ccnc4ccccc34)nc2c1
  -3.0, /
> N#Cc1ccc(OCC(=O)NCCOc2ccccc2F)cc1
  1.0, /
> N#Cc1cc(-c2nc(-c3ccccc3)cs2)c(N)nc1SCC(=O)c1ccc[nH]1
  0.0, /
> CCCCN(CC)C(=O)c1ccc2c(=O)n(CC(C)C)c(=S)[nH]c2c1
  -8.0, /

Carrying on.
Sequence of screens: S aureus helic, MgrA-DNA mod
> C/C=C/C(=O)Nc1ccc(NC(C)=O)cc1
  -1.0, 3.0
> Cc1ccc(SCCC(=O)N2CCC(C(N)=O)CC2)cc1
  8.0, -4.0
> O=C1C2ON(c3ccccc3)C(c3ccncc3)C2C(=O)N1c1cccc(Br)c1 (configuration not stated)
  -7.0, /
> C=CCNc1nc(C(=O)OCC(=O)N2CCCC2=O)cs1
  10.0, /
> CC(C(=O)Nc1ccc(S(N)(=O)=O)cc1)N(C)CC1COc2ccccc2O1 (configuration not stated)
  -2.0, /
> Cc1nn(CC(=O)C23CC4CC(CC(C4)C2)C3)c(=O)c(C#N)c1C
  19.0, /
> Cc1cccc(Nc2nc(O)c(C3=c4cc(Br)ccc4=NC3=O)s2)c1C
  /, -3.9&-2.3
> Cc1cc(C(=O)CN2CCN(c3cccc(Cl)c3)CC2)c(C)n1-c1ccc(S(N)(=O)=O)cc1
  -6.0, /
> COCCNC(=O)c1cn(C(C)c2ccccc2)nn1 (configuration not stated)
  2.0, 2.2
> COc1ccc(C/C(C)=N/Nc2nc(C)cc(=O)[nH]2)cc1
  7.0, /
> O=C(NC1=NCCS1)c1ccc2c(c1)OCO2
  -1.0, /
> CCCCn1c(CCNC(=O)Cc2ccccc2)nc2ccccc21
  -15.0, /
> Cc1ccc(C)n1-c1ccc([N+](=O)[O-])cc1
  /, -0.4
> CC(C)N(CCc1ccncc1)C(=S)NCc1ccccc1
  15.0, -0.2
> CCOC(=O)c1c(NC(=O)/C=C/c2ccc(OC)cc2)sc2c1CCC2
  -9.0, /

Additional records follow.
Sequence of screens: S aureus helic, MgrA-DNA mod
> CCN(CC)Cc1c(O)ccc2c1O/C(=C\c1ccccc1Cl)C2=O
  -21.0, /
> CCOC(=O)c1ccc(-c2ccc(/C=C(\C#N)C(=O)NCc3cccs3)o2)cc1
  3.0, -1.0
> O=C1c2cccc3cccc(c23)C(=O)N1c1ccccc1
  14.0, -2.9
> CNC(=O)n1cc(C)c(-c2ccccc2)n1
  /, -11.8
> CNC(=O)NC(=O)C(C)Sc1nncn1-c1ccccc1 (configuration not stated)
  -6.0, /
> COC(=O)COc1c(C)cc(Br)cc1Br
  -10.0, -0.2
> CC(=O)N(c1ccc(C)c(C)c1)c1nc(CSc2nnnn2C2CCCC2)cs1
  -7.0, /
> COC(=O)c1[nH]nc2c1C(=O)N(Cc1ccccc1)C2=O
  16.0, 1.1
> OC(CN1CCN(c2ccc(C(F)(F)F)cn2)CC1)c1ccc2c(c1)OCCO2 (configuration not stated)
  /, 1.1
> S=c1oc(Cc2ccccc2)nn1CN1CCOCC1
  12.0, 4.2
> O=c1oc2ccccc2n1Cc1ccc(Cl)cc1
  8.0, /
> O=C(Nc1cccc(Cl)c1)c1ccc(S(=O)(=O)N2CCCC2)cc1
  -16.0, /
> Cc1ccc(CNC(=O)c2ccccc2NC(=O)C(F)(F)F)cc1
  /, 3.3
> Fc1ccc(-c2nc3n(n2)Cc2ccccc2-3)cc1
  18.0, 0.7
> Cc1cccc(C)c1NC(=O)CSc1nnc(C)n1Cc1ccccc1
  -3.0, 2.2

Additional entries follow:
Sequence of screens: S aureus helic, MgrA-DNA mod
> O=S(=O)(CCO)c1ccc(C(F)(F)F)cn1
  /, -0.8
> Cc1nc2ccccc2nc1OCC(=O)N1CCN(c2ccccc2)CC1
  -2.0, /
> CCOC(=O)c1ccc(NC(=O)c2sc(NC(=O)c3ccc(F)cc3)c(C(=O)OCC)c2C)cc1
  /, -2.8
> CC(SCc1ccc(Br)cc1)C(=O)O (configuration not stated)
  -1.0, /
> O=C(Nc1ccccc1)N1CCN(c2nc(-c3ccccc3)ns2)CC1
  -14.0, /
> CCN(CC(=O)NC1CCS(=O)(=O)C1)C(=O)c1ccccc1-c1ccccc1 (configuration not stated)
  -15.0, /
> CNC(=O)NC(=O)C(C)Sc1nc2ccccc2s1 (configuration not stated)
  24.0, /
> Cc1cc(C)n(C2=NCCN2S(C)(=O)=O)n1
  /, -1.4
> CCc1ccc(NCc2nnc(-c3ccccc3)o2)cc1
  12.0, /
> CN(C)S(=O)(=O)c1ccc(S(=O)(=O)N(CC(=O)Nc2ccccc2)C2CC2)cc1
  5.0, 2.2
> O=c1c(-c2ccon2)c(O)c2ccccc2n1-c1ccccc1
  13.0, -1.2
> O=C(CN1CCCC1)OCCCc1ccccc1
  -7.0, /
> Cc1cc(C(C)(C)C)ccc1OCC(N)=O
  6.0, 3.0
> Cc1cc(=O)n(CC(=O)N2CCN(Cc3ccc4c(c3)OCO4)CC2)c2c1c(C)nn2-c1ccccc1
  -2.0, /
> COc1ccccc1NC(=O)c1ccncc1
  -19.0, /
> O=C(O)CCC(=O)N1CC(=O)Nc2ccc(Br)cc2C1c1ccccc1 (configuration not stated)
  10.0, 0.0
> O=C(N/N=C/C1=C(Sc2nc3ccccc3o2)CCCC1)C1COc2ccccc2O1 (configuration not stated)
  25.0, /
> CC1CCCCC1NC(=O)COC(=O)c1cc(=O)c2ccccc2o1 (configuration not stated)
  7.0, /
